Source: PubChem
EPAC1 ag val: human EPAC1 agonism, validation | EPAC1 Rap1b BODIPY-GDP exchange, fluorescence | Potency, µM, for the others: max response, positive = active, most hits filed as activators | 16,000 tested, 1% active; active means well fitted activation curve with a large enough effect; inconclusive means small, poorly fitted or top-dose-only effect; inactive means no such curve, though single readings can be large or run the other way;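 further: nearly all actives have a fitted effect of over 70% in size; series mostly up to about 76 or 150 µM; scaled to a cAMP control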
Target sequence (O95398 whole entry, looked up): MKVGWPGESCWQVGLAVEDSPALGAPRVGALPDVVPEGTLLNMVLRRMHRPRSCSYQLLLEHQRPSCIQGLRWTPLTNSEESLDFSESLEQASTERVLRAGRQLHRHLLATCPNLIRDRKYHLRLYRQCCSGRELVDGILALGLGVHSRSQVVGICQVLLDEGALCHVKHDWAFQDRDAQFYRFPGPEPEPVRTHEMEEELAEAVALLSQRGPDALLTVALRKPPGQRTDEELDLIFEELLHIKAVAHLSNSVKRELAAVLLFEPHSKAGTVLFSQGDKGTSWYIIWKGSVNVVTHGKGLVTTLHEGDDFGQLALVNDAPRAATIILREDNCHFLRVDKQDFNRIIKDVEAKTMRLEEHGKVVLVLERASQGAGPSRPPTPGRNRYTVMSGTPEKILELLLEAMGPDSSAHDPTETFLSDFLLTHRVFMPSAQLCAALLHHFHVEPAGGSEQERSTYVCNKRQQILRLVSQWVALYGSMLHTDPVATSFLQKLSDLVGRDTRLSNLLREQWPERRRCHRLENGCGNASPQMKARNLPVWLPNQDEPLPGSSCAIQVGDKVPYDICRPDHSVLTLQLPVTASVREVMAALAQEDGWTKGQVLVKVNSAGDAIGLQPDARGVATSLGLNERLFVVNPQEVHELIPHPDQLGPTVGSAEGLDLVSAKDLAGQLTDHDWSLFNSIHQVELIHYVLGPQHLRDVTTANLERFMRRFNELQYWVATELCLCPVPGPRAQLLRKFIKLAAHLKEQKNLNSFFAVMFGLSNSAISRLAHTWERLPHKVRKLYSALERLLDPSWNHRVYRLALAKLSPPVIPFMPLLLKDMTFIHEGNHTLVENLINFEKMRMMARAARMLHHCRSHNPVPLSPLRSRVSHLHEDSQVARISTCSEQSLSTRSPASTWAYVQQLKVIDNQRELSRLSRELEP
The depositor's hits bear a star; ? = inconclusive; & = joins results of further samples; [ ] = another dose, or the depositor's remark. On the % scale 0 is the no-effect control and ±100 the full control effect; potency means the concentration at half of the fitted maximal effect. These rows are one share of the data; count on the stated rates, not on these rows.

entry	EPAC1 ag val	SMILES
1	?	COc1ccccc1CNc1ncnc2ccc(-c3cccnc3)cc12
2	0%	COc1ccccc1-c1cc2c(c(OC)c1)OCCN(CCC(C)c1ccc(C)o1)C2 (stereo not given)
3	6%	COc1cccc(CCNc2ncnc3sc(C(=O)N4CCN(C)CC4)c(C)c23)c1
4	?	O=c1[nH]c(=O)n([C@H]2C[C@H](O)[C@@H](CO)O2)cc1C(F)(F)F
5	-24%	COc1ccc(CN([C@H](CO)CC(C)C)S(=O)(=O)N(Cc2ccccc2)[C@H](CO)CC(C)C)cc1
6	10%	COC(=O)[C@@H]1CCCN1Cc1ccc2c(c1)CN(Cc1ccc(OC)c(C)c1)CCO2
7	-11%	COc1cccc(Cn2cc(-c3cccc(C(F)(F)F)c3)nn2)c1
8	7%	Cc1noc(C)c1-c1cc(NC2CCNCC2)ncn1
9	-6%	CC(C)(C)n1nc(-c2ccc(Cl)cc2)c2c(N)ncnc21
10	?	CN1CCN(c2ncc3nc(-c4cccs4)c(=O)n(CCC#N)c3n2)CC1
11	-5%	C=CCN1CC[C@@H](O)C(=C)S1(=O)=O
12	5%	COc1cccc(-c2ccc3ncnc(NC4CC4)c3c2)c1
13	-16%	OC[C@H]1O[C@H](n2cnc3c(NC4CCCC4)nc(Cl)nc32)[C@@H](O)[C@@H]1O
14	1%	Cn1cc(-c2nc3cncnc3n(CCN)c2=O)c2ccccc21
15	-19%&-1%	N[C@@H](C(=O)O)c1ccc(C(=O)O)cc1
16	1%	COc1ccccc1-c1ccnc(-n2ncc(C(=O)N(C)C(C)c3ccon3)c2C2CC2)n1 (stereo not given)
17	7%	COc1ccc(CN2Cc3ccccc3OC(c3ccccc3OC)C2)cc1O (stereo not given)
18	-37%[inhibitor]	Cc1ccccc1-c1ccc2ncnc(-n3ccnc3)c2c1
19	-50%[inhibitor]	COc1ccc(C(=O)N2CCC[C@@]3(CCN(Cc4nccs4)C3)C2)cc1
20	-40%[inhibitor]	COCC(=O)N1CCC2(CCN(Cc3ccncc3)CC2)CC1
21	6%	CC(=O)O[C@H]1CC[C@@]2(C)C(=CC[C@H]3[C@@H]4CC[C@H](C(C)=O)[C@@]4(C)CC[C@@H]32)C1
22	-7%&-6%&5%&7%	c1cc(CN2CCCCC2)cc(OCCCNc2nc3ccccc3s2)c1
23	-8%	COc1ccc(C(=O)NCC2Cc3c(F)ccc(-c4nc(C)cnc4C)c3O2)cc1F (stereo not given)
24	-11%	COC(=O)[C@@H]1CCCN1C(=O)c1cc(NC(=O)C2CCC2)c2c(c1)nc(-c1ccncc1)n2C
25	19%	Cc1ccccc1-c1cncnc1NCCN1CCOCC1
26	-8%	O=C(NCC1Cc2cccc(-c3cncnc3)c2O1)C1CC1 (stereo not given)
27	-4%	Cc1ncc2c(c1CNC(=O)c1cncs1)CCN(C(=O)c1cccc(-c3cccc(F)c3)c1)C2
28	8%	C1CCN2CC3CC(CN4CCCC[C@@H]34)C2C1 (stereo not given in full)
29	14%	O=c1c(-c2ccc(Cl)cc2)nc2cnc(N3CCOCC3)nc2n1CCc1ccccc1
30	17%	CN(C)c1ccc(/C=C/c2ccnc3c(O)ccc(O)c23)cc1

Reprinted at random: two entries already listed, in no set order.
entry	EPAC1 ag val	SMILES
2	0%	COc1ccccc1-c1cc2c(c(OC)c1)OCCN(CCC(C)c1ccc(C)o1)C2 (stereo not given)
10	?	CN1CCN(c2ncc3nc(-c4cccs4)c(=O)n(CCC#N)c3n2)CC1

Four compounds out of the list above, ordered by their value in EPAC1 ag val, high to low.
entry	EPAC1 ag val	SMILES
8	7%	Cc1noc(C)c1-c1cc(NC2CCNCC2)ncn1
12	5%	COc1cccc(-c2ccc3ncnc(NC4CC4)c3c2)c1
11	-5%	C=CCN1CC[C@@H](O)C(=C)S1(=O)=O
13	-16%	OC[C@H]1O[C@H](n2cnc3c(NC4CCCC4)nc(Cl)nc32)[C@@H](O)[C@@H]1O

Later entries:
entry	EPAC1 ag val	SMILES
31	-89%[inhibitor]	CN1CC[C@H](c2c(O)cc(O)c3c(=O)cc(-c4ccccc4Cl)oc23)[C@H](O)C1
32	?	C/C=C(/C(=C/C)c1ccc(O)cc1)c1ccc(O)cc1
33	11%	COc1ccc(NC(=O)N2CC3(CCN(C(=O)c4c(C)noc4C)CC3)C2)cc1
34	-41%[inhibitor]	COc1ccc(C(=O)N2CCC3(CC2)CN(C(=O)Nc2cccc(C#N)c2)C3)cc1
35	-70%[inhibitor]	Cn1cccc1C(=O)N1CCC2(CCN(C(=O)Nc3cccc(C#N)c3)CC2)CC1
36	2%	COc1ccc(Oc2ncc3nc(C)c(=O)n(C4CC4)c3n2)cc1
37	17%	O=C(O)C(Cc1cc(I)c(O)c(I)c1)c1ccccc1 (stereo not given)
38	4%	Cc1noc(C)c1-c1nccc(NC2CC2)n1
39	0%	Cc1nc(C)n(CC(=O)N2CCOc3ccc(CN4CCN(C)C[C@@H]4c4ccccc4)cc3C2)n1
40	0%	O=C1NC(=O)/C(=C/c2ccc3c(c2)OC(F)(F)O3)S1
41	11%&11%&-16%&-1%	O=C(O)C1=CCNCC1
42	14%	COc1c(O)c2c(=O)cc(OC)c3c4c(OC)cc(=O)c5c(O)c(OC)c(C[C@@H](C)OC(=O)c6ccccc6)c(c(c1C[C@@H](C)OC(=O)Oc1ccc(O)cc1)c23)c54
43	-45%[inhibitor]	C=C1C([C@@]2(C)C(OC(C)=O)CC(=O)O[C@@](C)(COC(C)=O)C2CC(=O)OC)C(OC=O)C(OC(=O)C(O)C(C)CC)[C@]2(C)C(c3ccoc3)CC(=O)C12O (stereo not given in full)
44	?	N#Cc1cccc(-c2nccc(NCc3ccccc3)n2)c1
45	-25%	COc1ccc(-n2c(=O)c(-c3cccs3)nc3cnc(N4CCNCC4)nc32)cc1
46	11%	C[C@H]1C[C@@H]2[C@H]([C@@H](O)C[C@@]3(C)[C@H]2CC[C@]3(O)C(=O)COC(=O)CCC(=O)O)[C@@]2(C)C=CC(=O)C=C12
47	-20%	CN(C)c1ccc(-c2cncnc2NCc2ccccc2)cc1
48	0%	Cc1cnc(C)c(-c2cccc3c2OC(CNC(=O)/C=C/c2ccncc2)C3)n1 (stereo not given)
49	-19%	Cc1c(C(=O)NCC(C)(C)N2CCOCC2)cnn1-c1ncc2c(n1)-c1ccccc1CCC2
50	5%	CC1(C)[C@H](C(=O)O)N2C(=O)C[C@H]2S1(=O)=O
51	15%	CCCCN1CCCCC1C(=O)Nc1c(C)cccc1C (stereo not given)
52	-24%	COc1ccc2cc1Oc1cc3c(cc1OC)CC[N+](C)(C)[C@H]3Cc1ccc(cc1)Oc1c(OC)c(OC)cc3c1[C@@H](C2)[N+](C)(C)CC3
53	17%	CC[C@@H](C)CCCCC(=O)N[C@H](CCN)C(=O)N[C@@H](C(=O)N[C@H](CCN)C(=O)N[C@@H]1CCNC(=O)C([C@@H](C)O)NC(=O)[C@@H](CCN)NC(=O)[C@@H](CCN)NC(=O)[C@@H](CC(C)C)NC(=O)[C@@H](Cc2ccccc2)NC(=O)[C@@H](CCN)NC1=O)[C@@H](C)O (stereo not given in full)
54	-16%	O=C1CCC[C@@H]2[C@@H](Cc3ccccc3)[C@@H](Nc3ccccc3)C[C@@H]3CCN1[C@@H]32
55	8%	O=C1C=CC2=C3c4cc(O)c(O)cc4C[C@@]3(O)COC2=C1
56	-31%	O=C(O)c1cn(-c2ccc(F)cc2)c2cc(N3CCNCC3)c(F)cc2c1=O
57	-9%	Cn1cccc1C(=O)N1CCC2(CCCN(C(=O)Nc3ccccc3)C2)CC1
58	0%	COc1cc2c3cc1Oc1cc(ccc1O)CC1c4c(cc(OC)c(O)c4Oc4ccc(cc4)CC3N(C)CC2)CC[N+]1(C)C (stereo not given)
59	28%	COC(=O)CC1C(C)(C)C(OC(C)=O)C2CC3=C4CC(=O)OC(c5ccoc5)[C@]4(C)CCC3[C@@]1(C)C2=O (stereo not given in full)
60	-16%	CCC(C)C(=O)OC1CC(C)C=C2C=CC(C)C(CCC3CC(O)CC(=O)O3)C21 (stereo not given)

Structural class, the compounds so far containing a cyano group.
entry	EPAC1 ag val	SMILES
10	?	CN1CCN(c2ncc3nc(-c4cccs4)c(=O)n(CCC#N)c3n2)CC1
34	-41%[inhibitor]	COc1ccc(C(=O)N2CCC3(CC2)CN(C(=O)Nc2cccc(C#N)c2)C3)cc1
35	-70%[inhibitor]	Cn1cccc1C(=O)N1CCC2(CCN(C(=O)Nc3cccc(C#N)c3)CC2)CC1
44	?	N#Cc1cccc(-c2nccc(NCc3ccccc3)n2)c1

Reformatted: entries from further up
No. | Molecule | EPAC1 ag val
27 | Cc1ncc2c(c1CNC(=O)c1cncs1)CCN(C(=O)c1cccc(-c3cccc(F)c3)c1)C2 | -4%
13 | OC[C@H]1O[C@H](n2cnc3c(NC4CCCC4)nc(Cl)nc32)[C@@H](O)[C@@H]1O | -16%
37 | O=C(O)C(Cc1cc(I)c(O)c(I)c1)c1ccccc1 (stereo not given) | 17%
6 | COC(=O)[C@@H]1CCCN1Cc1ccc2c(c1)CN(Cc1ccc(OC)c(C)c1)CCO2 | 10%
30 | CN(C)c1ccc(/C=C/c2ccnc3c(O)ccc(O)c23)cc1 | 17%
19 | COc1ccc(C(=O)N2CCC[C@@]3(CCN(Cc4nccs4)C3)C2)cc1 | -50%[inhibitor]

Next part.
entry	EPAC1 ag val	SMILES
61	-2%	CCc1cc(C(=O)NCCN2Cc3ccccc3OC(c3ccsc3)C2)n(C)n1 (stereo not given)
62	1%	CC(C)C(C)(C)C(C)(C)C(C)(C)S
63	-26%	O=C(c1cnccn1)N1CCC2(CCCN(Cc3nccs3)C2)CC1
64	-8%	OC[C@H]1O[C@@H](n2cnc3c(N[C@H]4C[C@H]5CC[C@@H]4C5)ncnc32)[C@H](O)[C@@H]1O
65	27%	O=S1(=O)CCOCCCN1Cc1ccccc1
66	0%	CC12CCC3C(CC3(C)C)C(C)(CCC1=O)O2 (stereo not given)
67	0%	O=C(CCc1cccnc1)NCC1Cc2cccc(-c3ncccn3)c2O1 (stereo not given)
68	-26%&6%	O=c1c(O)c(-c2ccc(O)cc2)oc2cc(O)cc(O)c12
69	17%	Cc1ccc2ccccc2[n+]1CCCCI
70	-5%	Cc1cccc(C)c1NC(=O)c1ccccc1C(=O)O
71	-6%	N=C(N)c1ccc(OCCCCCOc2ccc(C(=N)N)cc2)cc1 (tested in a mixture with another compound)
72	-4%	Cc1cnc(-n2ncc(C(=O)NCCc3ccccn3)c2C)nc1-c1ccc(F)cc1
73	6%	OCCN1CCN(Cc2ccc3c(c2)CN(Cc2ccc4ccccc4c2)CCO3)CC1
74	-10%	COc1ccc(/C=C/C(=O)OCCC(C)C)cc1
75	-33%[inhibitor]	CC(C)NCC(O)COc1ccccc1-n1cccc1 (stereo not given)
76	3%	Cc1nc2cc(NC(=O)[C@@H]3C[C@@H](Sc4ccccn4)CN3Cc3ccccc3F)ccc2s1
77	?	Cc1cnc(-n2ncc(C(=O)NCCc3ccncc3)c2-c2cccs2)nc1-c1ccc(F)cc1
78	-16%	CCNc1ncc2nc(C)c(=O)n(CCC#N)c2n1
79	-64%[inhibitor]	O=S(=O)(c1ccccc1)N1CCC2(CCN(c3ccncc3)CC2)CC1
80	14%	O=S1(=O)CCO[C@H]2Cc3ccccc3[C@H]2N1Cc1ccccc1F
81	25%	COc1ccccc1N1CCN(CCN(C(=O)c2ccc(I)cc2)c2ccccn2)CC1
82	-9%	COc1cc(CN2CCc3nnc(C(NS(C)(=O)=O)C(C)C)n3CC2)ccc1F (stereo not given)
83	-2%	CN(C(=O)c1cnn(-c2nccc(-c3ccccc3C(F)(F)F)n2)c1C1CC1)C1CCOC1 (stereo not given)
84	-3%&12%&-29%	O=C(O)COCCN1CCN(C(c2ccccc2)c2ccc(Cl)cc2)CC1 (stereo not given)
85	-14%	O=C(O)c1ccc(NC(=O)[C@H](Cc2ccc(O)cc2)NC(=O)c2ccccc2)cc1
86	-34%[inhibitor]	Cc1cc(NC(=O)C2=C(O)c3ccccc3S(=O)(=O)N2C)no1
87	?	c1ccc2sc(SN3CCOCC3)nc2c1
88	-35%[inhibitor]	Cn1cccc1C(=O)N1CCC2(CCCN(Cc3nccs3)C2)CC1
89	-36%	O=S1(=O)CCOCCCN1Cc1ccc(Cl)cc1
90	19%	COc1ccccc1-c1ccc(C(=O)N(C)CC2COCCO2)c(N2CCN(c3ccccc3F)CC2)n1 (stereo not given)
91	7%	COc1ccccc1N1CCN(CCCCNC(=O)c2ccc3ccccc3c2)CC1
92	-17%	O=C(N/N=C/c1ccccc1O)c1ccncc1
93	23%	COc1ccc2[nH]cc(CCNc3nc(-c4cccnc4)nc4ccccc34)c2c1
94	-23%	O=c1cc(-c2cccc(O)c2)oc2c(O)c(O)ccc12
95	-14%	O=S(=O)(c1ccccc1)N1CCC2(CC1)CN(c1ccccn1)C2
96	?	O=C(Oc1ccccc1)N1CCC2(CC1)CN(c1ccccn1)C2
97	-2%&-13%&-2%&23%	O=C(O)c1ccccc1Nc1ccccc1
98	?	CCN(CCCc1ccccc1)CCCc1ccccc1
99	-10%	CN(C)Cc1ccccc1-c1nccc(N(C)Cc2ccco2)n1
100	-11%	O=C(c1csnn1)N1CCC2(CCCN(c3ccccn3)C2)CC1
101	4%	Cc1ccccc1CN1[C@H](C)[C@H](c2ccccc2)OCCS1(=O)=O
102	-33%[inhibitor]	CC1COC2=C1C(=O)C(=O)c1c2ccc2c1CCCC2(C)C (stereo not given)
103	7%	CC(C)=O
104	-2%	COc1ccc2[nH]cc(CCNc3cc(-c4cccnc4)ncn3)c2c1
105	-9%&-9%	O=C(O)C1CCCNC1 (stereo not given)
106	2%	c1ccc2c(c1)Sc1ccccc1N2CCN1CCCC1
107	-29%&-17%	CO[C@]12C[C@@H](COC(=O)c3cncc(Br)c3)CN(C)[C@@H]1Cc1cn(C)c3cccc2c13
108	-34%[inhibitor]	COc1ccc(NC(=O)N2CCC3(CC2)CCN(C(=O)c2cccc(F)c2)CC3)cc1
109	5%	CSC(N)=NCCCC(N)C(=O)O (stereo not given)
110	-30%	CC(C)NC(=O)N1CCC2(CC1)CCN(C(=O)c1cnccn1)CC2
111	-1%	O=c1c(O)c(Br)ccc2c(Br)c(O)c(O)c(O)c12
112	26%	COc1ccccc1CN1CC[C@@]2(CCCN(C(=O)c3cccc(F)c3)C2)C1
